HSV replic up – increases HSV replication in cells | HSV replication augmentation in cells, fold increase | maximum fold increase | 0.005% of 220,000 active;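 active = peak rise of 1.5-fold or more in the series; tested in PC3 cells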;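 also: first round at 10 µM; read as green reporter fluorescence; hits show the peak of a series up to 25 µM; 1 = signal of infected wells without compound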
PKD1 inh – inhibitors of human PKD1 kinase. Q15139. PKD1 kinase fluorescence polarization assay. inhibition, %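 (about 10 µM by stock and volumes)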. 0.056% of 200,000 active. AID 797;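 active = inhibition of 50% or more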;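 also: controls were vehicle for no effect and a reference inhibitor for full effect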
Target sequence (Q15139 whole entry, looked up): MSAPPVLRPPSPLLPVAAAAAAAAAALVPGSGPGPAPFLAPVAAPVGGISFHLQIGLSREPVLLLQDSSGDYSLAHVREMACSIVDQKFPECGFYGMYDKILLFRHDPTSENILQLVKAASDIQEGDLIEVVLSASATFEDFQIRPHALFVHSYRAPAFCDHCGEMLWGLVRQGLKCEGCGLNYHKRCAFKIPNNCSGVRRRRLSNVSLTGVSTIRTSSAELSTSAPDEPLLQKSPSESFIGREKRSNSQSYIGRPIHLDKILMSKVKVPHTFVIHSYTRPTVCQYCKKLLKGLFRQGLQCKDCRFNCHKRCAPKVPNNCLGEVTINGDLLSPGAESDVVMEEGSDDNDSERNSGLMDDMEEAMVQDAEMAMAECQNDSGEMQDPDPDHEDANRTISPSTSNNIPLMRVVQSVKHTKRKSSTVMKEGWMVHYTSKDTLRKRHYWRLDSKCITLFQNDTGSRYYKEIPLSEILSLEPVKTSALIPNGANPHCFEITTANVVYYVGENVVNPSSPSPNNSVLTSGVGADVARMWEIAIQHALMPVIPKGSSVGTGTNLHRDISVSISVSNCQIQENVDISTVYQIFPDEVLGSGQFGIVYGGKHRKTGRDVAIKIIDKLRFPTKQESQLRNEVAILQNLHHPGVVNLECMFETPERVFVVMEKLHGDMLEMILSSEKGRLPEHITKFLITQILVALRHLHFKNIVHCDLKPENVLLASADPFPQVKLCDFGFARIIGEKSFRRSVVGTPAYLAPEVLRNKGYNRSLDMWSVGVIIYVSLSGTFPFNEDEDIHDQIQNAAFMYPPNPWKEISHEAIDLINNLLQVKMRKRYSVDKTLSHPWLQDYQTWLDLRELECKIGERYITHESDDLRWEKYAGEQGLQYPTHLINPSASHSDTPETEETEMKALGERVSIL
INS promoter inh – TRM-6 insulin promoter activity inhibition; TRM-6 cells (human fetal islet line), insulin promoter-eGFP reporter, imaging; reporter expression induced with tamoxifen; inhibition, % at 2 µM; 0.9% of 130,000 active;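 active = inhibition above the mean plus 3 SD, with well images judged a real hit on visual review, cut at about 60% in these data, passing the limit was not always enough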
RGS16-Gao – regulators of human RGS16-Galphao interaction | bead-based flow cytometry RGS16-Galphao binding, fluorescence; actives lie on both sides | binding response (% of control), % at 10 µM | 0.38% of 220,000 active;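 active = below 25% or above 175%, edge rows of some plates excepted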;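 also: Galphao activated by GDP with aluminum fluoride before binding; 100% = wells without compound and 0% = beads without RGS; some results beyond the cut were filed as inactive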
GALR2 ag – GALR2 (human) receptor agonism; GALR2-expressing cells, agonist activation read-out; AID 803; activation, %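 (tested at 5 µM)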; O43603; 0.48% of 140,000 active;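 active = above mean plus 3 SD of all compounds, about 5% in these data, not always enough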;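 also: 0% = vehicle buffer wells and 100% = reference agonist at full effect; tested in CHO reporter cells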
INS promoter inh cell count – second read-out of INS promoter inh, no call of its own (marks repeat the call); normalized cell count, %; measured here: cell count, toxicity; reference of the scale not given here;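 cells exposed to compound for 48 h; stained nuclei by imaging scaled within each plate; lower means fewer cells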
HSV replic up primary fold – recorded beside HSV replic up, whose call it bears; fold increase; compound at 10 µM; measured here: primary screen fold increase 10 uM; tested in PC3 cells;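 GFP signal in the first replicate; 1 = infected wells without compound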
Starred values were filed as active, the others as inactive.

Screening C=C(C)CSc1[nH]c(=O)cc(C)c1C#N returned HSV replic up inactive, PKD1 inh 0, INS promoter inh -150, RGS16-Gao 104, INS promoter inh cell count 89 and HSV replic up primary fold 0.98.
Cc1cc(C)c(NC(=O)CSc2nc3ccc(N4C(=O)c5ccccc5C4=O)cc3s2)c(C)c1 was read as HSV replic up inactive, PKD1 inh 5, INS promoter inh -75, RGS16-Gao 90, INS promoter inh cell count 133 and HSV replic up primary fold 0.94.
CC1(C)CC(=O)C2=C(C1)Nc1ccccc1N(C(=O)C1CC1)C2c1ccco1 (centres undefined) was read as HSV replic up inactive, PKD1 inh -7, INS promoter inh -10, RGS16-Gao 103, INS promoter inh cell count 155 and HSV replic up primary fold 0.91.
CCn1c(=O)c(C(=O)NCc2ccccn2)c(O)c2ccccc21 was read as HSV replic up inactive, PKD1 inh -14, RGS16-Gao 101, GALR2 ag -0.9 and HSV replic up primary fold 0.93.
CC1=C(OC(=O)c2ccccc2)C(C)(C)C(c2ccccc2)OC1=O (centres undefined) was read as HSV replic up inactive, PKD1 inh 0, RGS16-Gao 94, GALR2 ag -1.4 and HSV replic up primary fold 0.8.
`Cc1nc(Cl)c(C(=O)NC(=O)NCc2ccccc2)c(C)c1Cl` gave HSV replic up inactive, PKD1 inh -1, INS promoter inh -52, RGS16-Gao 101, GALR2 ag -1.2, INS promoter inh cell count 103 and HSV replic up primary fold 0.95.
Screening CC(=O)c1sc2nc(CSc3nncn3C)[nH]c(=O)c2c1C returned HSV replic up inactive, PKD1 inh -1, RGS16-Gao 102 and HSV replic up primary fold 1.
Screening CCOc1ccc(CC(=O)Nc2c(C(N)=O)oc3ccccc23)cc1OCC returned HSV replic up inactive, PKD1 inh 1, INS promoter inh 16, RGS16-Gao 106, GALR2 ag 1.3, INS promoter inh cell count 100 and HSV replic up primary fold 1.
Screening COc1ccc(OC)c(Cc2nnc(CCC(=O)NC3CCCCC3)o2)c1 returned HSV replic up inactive, PKD1 inh 3, RGS16-Gao 101 and HSV replic up primary fold 1.2.
O=C(CO)N/N=C/c1c2ccccc2cc2ccccc12 was read as HSV replic up inactive, PKD1 inh 4, RGS16-Gao 99 and HSV replic up primary fold 1.
Screening COc1cccc(-c2cc(C(=O)NCc3ccco3)no2)c1 returned HSV replic up inactive, PKD1 inh 1, INS promoter inh -39, RGS16-Gao 112, GALR2 ag -0.4, INS promoter inh cell count 51 and HSV replic up primary fold 0.91.
Screening CC(=O)c1ccc(NC(=S)NC2CCCC(C)C2C)cc1 (centres undefined) returned HSV replic up inactive, PKD1 inh -3, RGS16-Gao 101 and HSV replic up primary fold 0.96.

A draw from above in order of heavy-atom count, smallest number first:
Screening C=C(C)CSc1[nH]c(=O)cc(C)c1C#N returned HSV replic up inactive, PKD1 inh 0, INS promoter inh -150, RGS16-Gao 104, INS promoter inh cell count 89 and HSV replic up primary fold 0.98.
Screening CC(=O)c1ccc(NC(=S)NC2CCCC(C)C2C)cc1 (centres undefined) returned HSV replic up inactive, PKD1 inh -3, RGS16-Gao 101 and HSV replic up primary fold 0.96.
Screening CC(=O)c1sc2nc(CSc3nncn3C)[nH]c(=O)c2c1C returned HSV replic up inactive, PKD1 inh -1, RGS16-Gao 102 and HSV replic up primary fold 1.
`Cc1nc(Cl)c(C(=O)NC(=O)NCc2ccccc2)c(C)c1Cl` gave HSV replic up inactive, PKD1 inh -1, INS promoter inh -52, RGS16-Gao 101, GALR2 ag -1.2, INS promoter inh cell count 103 and HSV replic up primary fold 0.95.
Screening COc1ccc(OC)c(Cc2nnc(CCC(=O)NC3CCCCC3)o2)c1 returned HSV replic up inactive, PKD1 inh 3, RGS16-Gao 101 and HSV replic up primary fold 1.2.
Screening CCOc1ccc(CC(=O)Nc2c(C(N)=O)oc3ccccc23)cc1OCC returned HSV replic up inactive, PKD1 inh 1, INS promoter inh 16, RGS16-Gao 106, GALR2 ag 1.3, INS promoter inh cell count 100 and HSV replic up primary fold 1.
Cc1cc(C)c(NC(=O)CSc2nc3ccc(N4C(=O)c5ccccc5C4=O)cc3s2)c(C)c1 was read as HSV replic up inactive, PKD1 inh 5, INS promoter inh -75, RGS16-Gao 90, INS promoter inh cell count 133 and HSV replic up primary fold 0.94.

(list continues)
`CC(Sc1nc(-c2ccc(F)cc2)cs1)C(=O)N1c2ccccc2CC1C` (centres undefined) gave HSV replic up inactive, PKD1 inh 9, INS promoter inh -12, RGS16-Gao 97, GALR2 ag -1.6, INS promoter inh cell count 49 and HSV replic up primary fold 1.2.
`COc1cc(C(=O)N2CCC(n3c(C)nc4cc(F)ccc43)CC2)cc(OC)c1OC` gave HSV replic up inactive, PKD1 inh 0, INS promoter inh -33, RGS16-Gao 101, GALR2 ag -2.3, INS promoter inh cell count 76 and HSV replic up primary fold 0.9.
For CC(C)COc1ccc(-c2nn(-c3ccccc3)cc2C(=O)Nc2nccs2)cc1 the results were HSV replic up inactive, PKD1 inh 7, INS promoter inh 0, RGS16-Gao 107, GALR2 ag 1.0, INS promoter inh cell count 55 and HSV replic up primary fold 0.82.
For COc1cc2c(cc1OC)CN(C(=O)CSc1nnc3scc(-c4ccccc4)n13)CC2 the results were HSV replic up inactive, PKD1 inh -11, INS promoter inh 32, RGS16-Gao 114, GALR2 ag 1.1, INS promoter inh cell count 95 and HSV replic up primary fold 0.99.
For O=C(Nc1cccc(C(F)(F)F)c1)c1cccnc1N1CCCC1 the results were HSV replic up inactive, PKD1 inh 3, INS promoter inh -81, RGS16-Gao 93, GALR2 ag -1.5, INS promoter inh cell count 105 and HSV replic up primary fold 1.1.
For COc1ccc2[nH]c(=O)c(CN(Cc3cccs3)S(=O)(=O)c3c(C)ccc4nsnc34)cc2c1 the results were HSV replic up inactive, PKD1 inh -9, INS promoter inh 38, RGS16-Gao 117, GALR2 ag -1.1, INS promoter inh cell count 67 and HSV replic up primary fold 1.2.
For O=S(=O)(c1cccs1)N1CN(CC2CCCO2)c2nc3ccccc3nc21 (centres undefined) the results were HSV replic up inactive, PKD1 inh -5, INS promoter inh -6, RGS16-Gao 103, GALR2 ag 2.1, INS promoter inh cell count 62 and HSV replic up primary fold 0.99.
COc1ccc(-n2c(COc3ccccc3)nnc2SCc2ccc(C#N)cc2)cc1 was read as HSV replic up inactive, PKD1 inh 2, INS promoter inh 11, RGS16-Gao 107, GALR2 ag -1.5, INS promoter inh cell count 114 and HSV replic up primary fold 0.74.
`Cc1nnc(C)n1/N=C/c1ccccn1` gave HSV replic up inactive, PKD1 inh -29, INS promoter inh 7, RGS16-Gao 94, GALR2 ag -2.5, INS promoter inh cell count 130 and HSV replic up primary fold 1.1.
CCOCCn1cnc2sc(C(=O)Nc3nc(C)c(C(=O)OCC)s3)c(C)c2c1=O was read as HSV replic up inactive, PKD1 inh -11, INS promoter inh 31, GALR2 ag -3.7, INS promoter inh cell count 142 and HSV replic up primary fold 0.91.
For Cc1ccc(C)c(/C(O)=C2\C(=O)C(=O)N(Cc3cccnc3)C2c2cccnc2)c1 (centres undefined) the results were HSV replic up inactive, PKD1 inh -7, INS promoter inh -9, RGS16-Gao 97, GALR2 ag 0.4, INS promoter inh cell count 122 and HSV replic up primary fold 0.94.
CC(=O)N(CC1CCCO1)c1nnc(-c2cnccn2)s1 (centres undefined) was read as HSV replic up inactive, PKD1 inh -1, RGS16-Gao 98, GALR2 ag -2.4 and HSV replic up primary fold 0.99.
For CCN(C(=O)COC(=O)c1cc(S(=O)(=O)Nc2c(C)n(C)n(-c3ccccc3)c2=O)ccc1Cl)C1CCCCC1 the results were HSV replic up inactive, PKD1 inh -1, INS promoter inh -57, RGS16-Gao 101, INS promoter inh cell count 131 and HSV replic up primary fold 1.
COc1ccc2c(c1OC)C(=O)OC2Nc1nc(-c2ccc([N+](=O)[O-])cc2)cs1 (centres undefined) was read as HSV replic up inactive, RGS16-Gao 99 and HSV replic up primary fold 0.89.
For O=C(Nc1cnn(Cc2ccccc2)c1)NC12CC3CC(CC(C3)C1)C2 the results were HSV replic up inactive, PKD1 inh 1, INS promoter inh -40, RGS16-Gao 108, GALR2 ag 0.8, INS promoter inh cell count 133 and HSV replic up primary fold 0.8.
NS(=O)(=O)c1ccc(CCNC(=O)CCCC2=NS(=O)(=O)c3ccccc3N2)cc1 was read as HSV replic up inactive, PKD1 inh 4, INS promoter inh -20, RGS16-Gao 106, GALR2 ag -0.8, INS promoter inh cell count 112 and HSV replic up primary fold 1.1.
For COCCNC(=O)Cn1c(=O)n(Cc2ccc(C(=O)NCc3ccco3)cc2)c(=O)c2ccccc21 the results were HSV replic up inactive, PKD1 inh -10, INS promoter inh -36, RGS16-Gao 112, GALR2 ag -0.5, INS promoter inh cell count 132 and HSV replic up primary fold 0.97.
CCN(CC)c1nc(OC)nc(-n2nnc(C(C)=O)c2C)n1 was read as HSV replic up inactive, PKD1 inh 2, INS promoter inh -8, RGS16-Gao 112, GALR2 ag 0.7, INS promoter inh cell count 83 and HSV replic up primary fold 0.84.
O=C(c1ccccc1)N1CCN(C(=O)c2ccc(OC(F)(F)F)cc2)CC1 was read as HSV replic up inactive, PKD1 inh 2, INS promoter inh -7, RGS16-Gao 99, GALR2 ag -0.2, INS promoter inh cell count 117 and HSV replic up primary fold 0.93.
For O=C(CCNC(=O)Cn1ccc2ccccc2c1=O)NCCc1ccc(Cl)cc1 the results were HSV replic up inactive, PKD1 inh -7, INS promoter inh -64, RGS16-Gao 108, GALR2 ag -0.1, INS promoter inh cell count 115 and HSV replic up primary fold 1.
For O=C(NNC(=O)C1C2CCCCC21)c1coc(=O)c(Br)c1 (centres undefined) the results were HSV replic up inactive, RGS16-Gao 96 and HSV replic up primary fold 1.2.
For CS(=O)(=O)c1nc(-c2ccccc2)cc(-c2ccccc2)c1C#N the results were HSV replic up inactive, PKD1 inh -3, INS promoter inh 20, RGS16-Gao 107, GALR2 ag 0.1, INS promoter inh cell count 119 and HSV replic up primary fold 0.94.
For Cc1cc(NC(=O)c2ccc3c(c2)C(=O)N(CCC(C)C)C3=O)no1 the results were HSV replic up inactive, PKD1 inh -2, INS promoter inh 22, RGS16-Gao 98, GALR2 ag -2.8, INS promoter inh cell count 119 and HSV replic up primary fold 0.95.
`CC(C)c1onc(C(=O)NC(C)c2ccccc2)c1[N+](=O)[O-]` (centres undefined) gave HSV replic up inactive, PKD1 inh 0, RGS16-Gao 102 and HSV replic up primary fold 0.91.
For O=C(CSc1nc(-c2ccco2)cc(C(F)(F)F)n1)Nc1ccc(C(=O)N2CCCCC2)cc1 the results were HSV replic up inactive, PKD1 inh 14, RGS16-Gao 91, GALR2 ag -0.4 and HSV replic up primary fold 0.87.
CC(NCC(O)COCc1cccs1)C1CC2CCC1C2 (centres undefined) was read as HSV replic up inactive, PKD1 inh 1, INS promoter inh -4, RGS16-Gao 97, GALR2 ag -2.0, INS promoter inh cell count 64 and HSV replic up primary fold 1.1.
For CCOC(=O)C1CCN(c2cc(=O)n(-c3ccc(OC)cc3)c(=O)[nH]2)CC1 the results were HSV replic up inactive, PKD1 inh 6, RGS16-Gao 103, GALR2 ag -2.4 and HSV replic up primary fold 0.86.
Screening CN(C)S(=O)(=O)c1cccc(C(=O)N(Cc2ccc(F)cc2)Cc2ccco2)c1 returned HSV replic up inactive, PKD1 inh -2, INS promoter inh 35, RGS16-Gao 95, GALR2 ag -2.3, INS promoter inh cell count 84 and HSV replic up primary fold 0.95.
For CCN(CC)CCNC(=O)c1cc2cc(Br)ccc2s1 the results were HSV replic up inactive, PKD1 inh -1, INS promoter inh -17, RGS16-Gao 102, INS promoter inh cell count 148 and HSV replic up primary fold 0.75.
`CCCn1c(C)cc(C(=O)COC(=O)c2ccc[nH]c2=O)c1C` gave HSV replic up inactive, PKD1 inh -7, INS promoter inh 24, RGS16-Gao 104, GALR2 ag 0.1, INS promoter inh cell count 108 and HSV replic up primary fold 1.1.
Screening COc1ccc(C(=O)NCc2nnc(SCC(=O)N3CCOCC3)o2)cc1OC returned HSV replic up inactive, PKD1 inh -3, INS promoter inh 43, RGS16-Gao 101, INS promoter inh cell count 113 and HSV replic up primary fold 0.8.
For Cc1cccc(N2C(=O)C3C4CC(C(Br)C4Br)C3C2=O)n1 (centres undefined) the results were HSV replic up inactive, PKD1 inh -5, RGS16-Gao 104, GALR2 ag -1.1 and HSV replic up primary fold 0.95.
`CN(C)/N=C/C=C1\CCC/C(=C/c2cccs2)C1=O` gave HSV replic up inactive, RGS16-Gao 102 and HSV replic up primary fold 1.
`N/C(=N\OC(=O)/C=C/c1ccc(Br)cc1)c1ccccn1` gave HSV replic up inactive, PKD1 inh -10, INS promoter inh -8, RGS16-Gao 98, GALR2 ag -1.8, INS promoter inh cell count 127 and HSV replic up primary fold 0.79.

Compound activity from PubChem.
